H5N1 antiviral – MDCK cell protection from H5N1 avian flu; cytopathic effect, luminescence, 72 h; active compounds read high; no value below 0 was filed and about half of the inactive calls have no number; reference of the scale not given here; 96,000 tested, 0.07% active; inhibition, % at 50 µM; AID 740; in the data active = inhibition above about 25%
* = called active by the depositor; i = inactive.

SMILES	H5N1 antiviral
COc1cccc(N(CC(=O)N2CCN(C)CC2)S(=O)(=O)c2ccc(C)cc2)c1	i
COc1ccc(-c2nnc(SCc3csc(N)n3)n2C)cc1	i
Cc1nc(NC(=O)c2csc3ccccc23)sc1C	i
COc1ccc(NC(=O)CCN2CCN(S(=O)(=O)c3ccc(C(C)C)cc3)CC2)cc1	i
Cc1occc1C(=O)NCc1ccc2c(c1)OCO2	0.5
CCNC(=O)CC1C(=O)N(c2ccc(C)cc2)C(=O)N1Cc1ccccn1 (configuration not stated)	i
Cc1ccc(CCNC(=O)C2CCCN(C(=O)c3cc4sccc4n3C)C2)cc1 (configuration not stated)	0.4
COc1cc2c(cc1OC)C(c1ccco1)CC(=O)N2 (configuration not stated)	i
COc1ccc(N(Cc2cc(=O)[nH]c3ccccc23)C(=O)c2ccco2)cc1	0.2
Nn1c(COc2ccccc2)nc2ccccc2c1=O	i
COc1ccc(NC(=S)Nc2cc(-c3ccccc3)[nH]n2)cc1Cl	i
Cc1ccc(S(=O)(=O)NCC(=O)N(CC(=O)NCc2ccco2)Cc2cccs2)cc1	2.8
Cc1nc2nc(SCC(=O)N3CCOCC3)nn2c(C)c1Cc1ccccc1	0.6
Cc1cc(NC(=O)c2ccc(S(=O)(=O)N(C)C)cc2)no1	i
Cc1nc2cc(C(=O)O)ccc2n1-c1ccccc1	0.4
CCc1c(C)nc(SCC(N)=O)c(C#N)c1C	i
O=C(CSc1nnc2ccccn12)c1ccc(OC(F)F)cc1OC(F)F	0.4
O=C1CC(N(Cc2ccco2)C(=O)Nc2ccc(F)cc2)C(=O)N1c1ccc(F)cc1 (configuration not stated)	i
COc1ccc(CC(=O)Nc2cccc(-c3nnc(-c4ccccc4)o3)c2)cc1OC	i
OCCN(Cc1ccccc1)Cc1ccc(Cl)cc1	i
CN1C(=O)N(C)C(=O)C(CCc2ccncc2)(Cc2ccc3c(c2)OCO3)C1=O	1.7
Cn1c(C(=O)NC2CCCC2)cc2c(=O)n(C)c3ccccc3c21	0.7
O=C(NCC1CCCO1)C1c2ccccc2C(=O)N1Cc1ccc2c(c1)OCO2 (configuration not stated)	i
COC(=O)C1=C(N)Oc2cc(C)n(Cc3cccnc3)c(=O)c2C1c1ccccc1OC (configuration not stated)	0.5
O=C(COc1ccccc1F)Nc1nnc(-c2ccncc2)s1	i
Cc1c(NC(=O)Cn2ccc([N+](=O)[O-])n2)c(=O)n(-c2ccccc2)n1C	0.0
O=C(OCc1c(Cl)cccc1Cl)c1cccnc1	i
COc1ccc(C(C(=O)NC2CCCC2)N(Cc2ccccc2)C(=O)CNC(=O)c2ccco2)cc1 (configuration not stated)	0.0
Nc1ccccc1OCCOCCOCCOc1ccccc1N	0.2
C=CCNC(=S)N1CCN(CCN=CC2=C(O)CC(c3ccco3)CC2=O)CC1 (configuration not stated)	0.3

Gathered by group: the compounds so far with an aryl methoxy group
SMILES	H5N1 antiviral
COc1cccc(N(CC(=O)N2CCN(C)CC2)S(=O)(=O)c2ccc(C)cc2)c1	i
COc1ccc(-c2nnc(SCc3csc(N)n3)n2C)cc1	i
COc1ccc(NC(=O)CCN2CCN(S(=O)(=O)c3ccc(C(C)C)cc3)CC2)cc1	i
COc1cc2c(cc1OC)C(c1ccco1)CC(=O)N2 (configuration not stated)	i
COc1ccc(N(Cc2cc(=O)[nH]c3ccccc23)C(=O)c2ccco2)cc1	0.2
COc1ccc(NC(=S)Nc2cc(-c3ccccc3)[nH]n2)cc1Cl	i
COc1ccc(CC(=O)Nc2cccc(-c3nnc(-c4ccccc4)o3)c2)cc1OC	i
COC(=O)C1=C(N)Oc2cc(C)n(Cc3cccnc3)c(=O)c2C1c1ccccc1OC (configuration not stated)	0.5
COc1ccc(C(C(=O)NC2CCCC2)N(Cc2ccccc2)C(=O)CNC(=O)c2ccco2)cc1 (configuration not stated)	0.0

Remaining list, next part.
SMILES	H5N1 antiviral
O=C(NCc1ccccc1)NC(=O)c1ccccc1	1.0
CCOC(=O)N1CCC(n2c(=S)[nH]c3cc(OC)c(OC)cc3c2=O)CC1	i
CC(C)(C)c1ccc(CNc2cc(N3CCOCC3)ccc2[N+](=O)[O-])cc1	i
O=C(CN1CCN(Cc2ccccc2)CC1)c1ccc(Br)cc1	0.3
O=C(N1CCN(c2ccccc2)CC1)C12CC3CC(CC(C3)C1)C2	2.1
CN(C1CCCCC1)S(=O)(=O)Cc1ccccc1	0.0
Cc1ccccc1NC(=S)NCCC(c1ccccc1)c1ccccc1	0.1
Cc1ccc(Cn2c(SCC(=O)N/N=C/c3ccc(C)o3)nc3ccccc32)cc1	0.7
COc1ccc(CNC(=O)[C@H](C)NC(=O)C2CCN(S(=O)(=O)c3ccc(C)cc3)CC2)cc1	1.8
Cc1[nH][nH]c(=O)c1C(c1ccc(-c2ccc(Cl)cc2Cl)o1)c1c(C)[nH][nH]c1=O	6.9
O=C(Cc1cccs1)Nc1cccnc1	0.4
COc1cccc(C2/C(=C(/O)c3cnn(-c4ccccc4)c3C)C(=O)C(=O)N2CCN(C)C)c1 (configuration not stated)	i
O=c1c2cc(Br)ccc2[nH]c(=S)n1Cc1cccnc1	0.8
COC(=O)c1ccccc1NC(=O)CN1CCC(n2nnc3cc(C(F)(F)F)ccc32)CC1	i
O=C(CSc1nnnn1-c1ccc2c(c1)OCCO2)N1CCc2ccccc21	0.2
COc1cccc(N2CCN(C(=S)Nc3cccc(C)c3)CC2)c1	0.1
CC(C)NS(=O)(=O)c1ccc(CCC(=O)N2CCOCC2)cc1	0.1
COC(=O)C1C(=O)C2=C(CC1C)NC(=O)CC2c1ccc(O)c(OC)c1 (configuration not stated)	i
CN1CCCC(OC(=O)COc2ccccc2)C1 (configuration not stated)	0.2
O=C(Nc1ccc(Nc2ccccc2)cc1)C1CC1	i
CCCC(=O)Nc1c(C)nn(C(=O)CCC)c1C	i
CCN(CC)S(=O)(=O)c1cc(C(=O)OCC(=O)c2ccc3c(c2)NC(=O)CO3)ccc1Cl	0.6
Cn1c(=O)n(CCCOc2ccc(Br)cc2)c2ccccc21	i
CCOC(=O)CSc1cc(C)nc(NC(C)=O)n1	i
CCCCN(CC)S(=O)(=O)c1ccc(C(=O)Nc2nnc(CSC)o2)cc1	2.6
Cc1cc(C)c2c(c1)SC1=NC(c3ccccc3)(C(F)(F)F)NC(=O)N12 (configuration not stated)	i
O=C1C2C3C=CC(C3)C2C(=O)N1c1n[nH]c(CCc2ccccc2)n1 (configuration not stated)	1.5
CCn1ncc(Cl)c1C(=O)NC(C)c1ccccc1 (configuration not stated)	2.4
CN(CC(=O)Nc1cccc2c1CCCC2)S(=O)(=O)c1ccccc1	i
Nn1c(SCC(=O)Nc2ccc3c(c2)OCO3)nnc1-c1ccncc1	0.4
O=C1CCCc2ccccc2N1Cc1cccc(Cl)c1	0.5
CCOC(=O)c1cnn(CC2CCCCC2)c1N	0.2
O=S(=O)(Nc1ccc2c(c1)CCC2)c1cccs1	i
O=C(NC1CCCCC1)N1CCCC(c2nc(-c3ccc(S(=O)(=O)N4CCCC4)cc3)no2)C1 (configuration not stated)	0.1
CC(C)OCCCn1c(=S)[nH]c2cc3c(cc2c1=O)OCO3	0.2
Cc1ccc(CNC(=O)c2ccc([N+](=O)[O-])o2)cc1	i
Cc1ccc(S(=O)(=O)CNC(=O)c2ccccc2)cc1	1.6
Cc1ccc(NC(=O)c2c(C)noc2C)cc1	i
CCCCn1c(SCC(=O)c2ccc3c(c2)OCCO3)nnc1-c1ccco1	0.5
COC(=O)c1ccc(N2CCN(CC(=O)c3ccc(-c4ccccc4)cc3)CC2)c([N+](=O)[O-])c1	0.1
Cc1ccccc1-n1c(SCC(=O)c2cc(C)n(C)c2C)nnc1-c1cccnc1	2.6
CCn1nc(-c2cccs2)nc2c(=O)n(C)c(=O)nc1-2	i
CCCc1nc(SCC(=O)N2CCN(c3ccccc3)CC2)c2c(=O)n(C)c(=O)n(C)c2n1	1.7
CCOC(=O)Nc1cccc2ccccc12	i
COc1ccc(-c2noc(N3CCC(C(=O)N4CCN(c5ccccn5)CC4)CC3)n2)cc1	i

Nothing new here: entries from further up.
SMILES	H5N1 antiviral
O=C1CCCc2ccccc2N1Cc1cccc(Cl)c1	0.5
CCOC(=O)c1cnn(CC2CCCCC2)c1N	0.2
O=S(=O)(Nc1ccc2c(c1)CCC2)c1cccs1	i
O=C(NC1CCCCC1)N1CCCC(c2nc(-c3ccc(S(=O)(=O)N4CCCC4)cc3)no2)C1 (configuration not stated)	0.1

Next section.
SMILES	H5N1 antiviral
CC(C)Oc1cccc(C(=O)NC(=S)N2CCN(c3ccc(C(F)(F)F)cc3[N+](=O)[O-])CC2)c1	0.9
O=C(c1cc(-c2ccncc2)nc2ccccc12)N1CCN(S(=O)(=O)/C=C/c2ccccc2)CC1	0.7
O=C(Nc1ccccc1C(=O)N1CCOCC1)c1noc2c1CCCC2	1.3
CC(C)CNC(=O)CC(=O)N/N=C/c1ccc(Br)cc1	1.7
Cc1ccc2c(c1)C(N1CCCC1=O)CC(c1ccco1)N2 (configuration not stated)	2.9
O=C(/C=C/c1ccccc1)NC(NC(=S)Nc1ccc(Cl)cc1)C(Cl)(Cl)Cl (configuration not stated)	2.0
Cc1ccc(Cl)cc1N1CCN(S(=O)(=O)c2ccc3c(c2)OCCO3)CC1	0.8
Cn1c(CSc2nc3ccccc3n2C)nc2ccccc21	2.3
CCCNS(=O)(=O)c1cccn1-c1ncc(C(F)(F)F)cc1Cl	2.0
CCN1CCN(c2nc3c(c(=O)n(C)c(=O)n3C)n2CCSc2ncccn2)CC1	1.5
O=c1[nH]c2cc3c(cc2cc1CN(CCCO)Cc1nnnn1Cc1ccc(F)cc1)OCO3	0.6
Cc1c(C(=O)N2CCN(S(C)(=O)=O)CC2)oc2ccccc12	1.0
Cn1cccc1/C=N/NC(=O)Cn1cnc2ccccc21	0.7
Cc1ccccc1C(=O)Nc1cccc(-c2nnc(SCC(=O)O)n2C)c1	0.2
COC(=O)c1ccc(CSc2nnnn2-c2ccccc2)o1	3.8
COc1ccc(CNC(=O)CSc2nnc(Cn3nnc4ccccc43)n2C)cc1	i
Cc1ccccc1-n1c(Cn2c(=O)sc3ccccc32)nnc1SCC(=O)NCC1CCCO1 (configuration not stated)	0.2
CC(C)N(Cc1nc(-c2ccccc2)no1)C(=O)Cc1ccccc1	3.0
CCCCSCCCNC(=O)CS(=O)Cc1nc(-c2cccc(C)c2)oc1C (configuration not stated)	1.4
CC(C)NC(=O)C1CCCN(S(=O)(=O)c2ccc(-n3cnnn3)cc2)C1 (configuration not stated)	i
Cc1c(C(=S)Nc2ccccc2)cnn1-c1ccccc1	i
Nc1nonc1-n1nnc(C(=O)c2ccccc2)c1-c1ccccc1	i
CC1(C)NC(C)(C)c2nonc2/C1=N\O	i
CCN1C/C(=C\c2cccc(C)c2)c2nc3ccccc3c(C(=O)O)c2C1	1.4
CC(Oc1ccccc1)C(=O)Nc1cccc(F)c1 (configuration not stated)	i
O=C(CC1Oc2ccccc2NC1=O)NC1CC1 (configuration not stated)	0.6
CC1CCN(C(=O)C2CCN(S(=O)(=O)c3cnc[nH]3)CC2)CC1	i
Cc1sc2nc(SCC(=O)NCCO)n(C)c(=O)c2c1C	0.3
O=C(Nc1ccc(N2CCCCC2)cc1)c1ccc2c(c1)OCCO2	i
Cc1cc(C)nc(Nc2ccc(N3CCOCC3)cc2)n1	i
COC(=O)C1(C)NC(c2ccco2)C2C(=O)N(c3ccc(C)cc3)C(=O)C21 (configuration not stated)	1.5
C/C(=N\N=C(/N)SC1CC(=O)N(c2ccccc2)C1=O)c1cccs1 (configuration not stated)	i
COC(=O)c1ccc(OC(=O)C2CC(=O)N(c3cccc(C)c3)C2)cc1 (configuration not stated)	0.5
COC(=O)C(NC=O)C(O)(Cc1ccccc1)C(F)(F)F (configuration not stated)	1.4
Cc1ccc(S(=O)(=O)N2CCN(C(=O)N(C)C)CC2)cc1C	0.4
O=C(Nc1ccccc1)C1=C(O)CC(c2ccco2)CC1=Nc1ccccc1 (configuration not stated)	1.1
COc1ccc(OC)c(N/C=C2/CCCCC2=O)c1	i
Cc1cc(OCc2cc(C(=O)O)oc2C)c2c3c(c(=O)oc2c1)CCCC3	2.4
N#C/C(=C(/O)COC(=O)CCCNC(=O)c1ccc(Cl)cc1)c1nc2ccccc2[nH]1	i
COc1ccc(Cn2nnnc2CN2CCOCC2)cc1	i
O=C(CNCC1CCCO1)Nc1ccccc1N1CCCCCC1 (configuration not stated)	0.1
Cc1ccc(-n2c(C)cc(C(=O)COC(=O)C3=NNC(=O)CC3)c2C)cc1	i
Cn1nnnc1SCC(=O)Nc1ccccc1Cc1ccccc1	0.1
Cc1cc(C)cc(N2CC(C(=O)O)CC2=O)c1 (configuration not stated)	0.5
Cc1ccc(C)c(Cn2c(CO)nc3ccccc32)c1	i
Cc1ncc(CO)c2cc(C(N)=O)c(=Nc3ccccc3)oc12	4.9
COC(=O)C(Cc1ccccc1)NC(=O)CSc1nc(N)cc(=O)[nH]1 (configuration not stated)	i
O=C(CNC(=O)C1CCCCC1)Nc1cc(Cl)cc(Cl)c1	i
COc1ccc(/C=N/NC(=O)C(=O)Nc2ccccn2)cc1OC	i
O=C1C(=O)c2ccccc2-c2ccccc21	i
c1cnn(-c2nc(N3CCOCC3)nc(N3CCOCC3)n2)c1	1.4
CON/C=C(\C=Nc1ccc(F)cc1)c1ncc(C(F)(F)F)cc1Cl	i
CC(NC(=O)c1ccc(NS(C)(=O)=O)cc1)c1ccccc1 (configuration not stated)	1.3
Cc1ccc(C(C(=O)NCc2ccco2)N(C(=O)CNC(=O)c2cccs2)c2c(C)cc(C)cc2C)cc1 (configuration not stated)	i
Cc1ccc(C(=O)Nc2ncc3c(Cl)cccc3n2)cc1	3.3
O=C(NCc1ccccn1)c1cnc2sccn2c1=O	0.3
O=C(CSc1nnc(NC(=O)C2CCC2)s1)Nc1ccc(N2CCOCC2)cc1	0.7
Nc1nnc(SCc2cc3c(cc2Cl)OCO3)s1	i
CN(C)CCOC(=O)Cc1ccc(Cl)cc1	2.7
Cc1cccc(N2C(N)=C(C#N)C(C#N)(C#N)C2c2ccccc2)c1 (configuration not stated)	1.8
Cn1cnnc1SCC(=O)NC(=O)NC1CCCC1	1.6

Assay outcomes (PubChem)

These rows are one share of the data; rates above refer to the full screens.
